Source: PubChem BioAssay (Fisher Drug Discovery Resource Center)
NPYLR7 ag – activates Aedes aegypti NPYLR7 receptor | HEK293T NPYLR7/Galpha15, GCaMP6s calcium fluorescence | activation, % at 10 µM | 0.15% of 270,000 active; in the data active means activation above about 40%;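 further: 0% = vehicle and 100% = reference agonist at the receptor; some compounds past the cut are filed as inactive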
NPYLR7 ag max-min – also measured in NPYLR7 ag; calls as there; activation, %; measured here: Max-Min RFU normalised activation; some inactives read as strong as hits;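 span of the calcium signal over five minutes; 0% = vehicle and 100% = native peptide agonist; compound fluorescence can raise it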
The depositor's hits bear a star; & = joins results of further samples. An excerpt; count on the stated rates, not on these rows.

SMILES | NPYLR7 ag | NPYLR7 ag max-min
O=C1Nc2ccccc2C12Oc1ccccc1C1CC(c3ccccc3)=NN12 (stereo not drawn) | -16 | -23
CN(C)c1nc(N(C)C)nc(N(C)C)n1 | -1&-8&-1&-2&1 | 2&-12&-4&-6&0
O=S(=O)(NCc1ccco1)c1ccccc1 | 10 | 6
COCCCNC(=O)c1cc2c(=O)n(C)c(=O)n(C)c2n1CCOC | -2 | -3
COc1cc([C@@H]2c3cc4c(cc3[C@@H](O[C@@H]3O[C@@H]5CO[C@@H](C)O[C@H]5[C@H](O)[C@H]3O)[C@H]3COC(=O)[C@H]23)OCO4)cc(OC)c1O | 0&-7 | -7&-11
Cc1ccnc(SCc2cc(=O)n3[nH]c(C)c(-c4ccc(F)cc4)c3n2)n1 | -18 | -26
COc1ccccc1C(=O)C1CCCN(C(=O)C2=CC(=O)CC(C)(C)O2)C1 (stereo not drawn) | 21 | 7
CN(C)Cc1ccc(-c2cccc(CO)c2)cc1 | 3 | 2
Cn1c(-c2nc3ccccc3c(=O)[nH]2)c(O)c2cccnc21 | 50 | 36
CC1(C)C(NC(=O)c2ccc(-n3cccn3)cc2)C2CCCOC21 (stereo not drawn) | 8&4 | 5&-4
CCCn1c(=O)c2c(nc3n2CC(C)=NN3Cc2ccc(F)cc2)n(C)c1=O | -8 | -12
COc1cccc(C(=O)N2C(C(=O)NC3CC3)COC23CCN(C(=O)c2c(OC)cccc2OC)CC3)c1 (stereo not drawn) | -1 | 2
COC(=O)C1CCN(C(c2ccccc2F)C2Sc3nc(C)nn3C2=O)CC1 (stereo not drawn) | 1 | 0
Cc1ccc(-n2nc(C)c(CC(=O)NC(C)c3ccncc3)c2C)cc1Cl (stereo not drawn) | 6 | 1
CN(CC(=O)N1CCOCC1)S(=O)(=O)c1ccc(C(=O)NCc2cccnc2)o1 | 2 | 1
CCOC(=O)C1=C(O)C(=O)NC(c2ccccc2)=C(OCC)C1 | -4 | -7
Clc1cc(NOCc2ccccc2)ncn1 | -3 | -6
C=C(Br)CNC(=O)NC1CCN(CC2CCCC2)CC1 | -2 | -3
O=S(=O)(c1ccc(=S)[nH]c1)N1CCCC1 | 3 | 0
CCc1ccc(/C(C)=N\Nc2nc(-c3ccccc3)nc(C)c2C)cc1 | -10 | -13
CC1Nc2nc(N(C)C)[nH]c(=O)c2NC1C (stereo not drawn) | -9 | -9
COc1cc(OC)cc(C(=O)NC2CCc3[nH]c4ccc(Br)cc4c3C2)c1 (stereo not drawn) | 7 | 1
Cc1cc(Br)ccc1N(C)S(=O)(=O)c1cc2c(c(C(=O)O)c1)OCCO2 | 9 | 7
Cc1nn2cccnc2c1C(=O)NCc1ccc(OC(C)C)c(F)c1 | -1 | -5
Cc1ccc(OCc2nn3c(C(F)(F)F)nnc3s2)cc1 | 14 | 4

(next part)
SMILES | NPYLR7 ag | NPYLR7 ag max-min
COc1c(S(=O)(=O)n2cnc3ccccc32)ccc(Cl)c1Cl | 13 | 2
CN(Cc1cc2n(n1)CCCNC2)Cc1nc(-c2ccccn2)no1 | 8 | 6
CC(=O)CC1(O)C(=O)N(CCCOc2ccccc2)c2c(C)cc(C)cc21 (stereo not drawn) | 9 | 12
COc1ccc(C(=O)N(CCN2CCOCC2)Cc2c(-c3ccccc3)noc2N2CCCCC2C)cc1 (stereo not drawn) | 9 | 11
COC(CNC(=O)c1c(O)nc2c(C)cccn2c1=O)OC | -2 | 7
Brc1cc(CSc2cn[nH]n2)c2ncccc2c1 | 7 | 6
N#Cc1cccc(S(=O)(=O)N2CCN(c3nc4nccc(-c5cc(Cl)ccc5Cl)n4n3)CC2)c1 | 4 | 1
CCCCOc1ccc(C2=N/C(=C/c3cccs3)C(=O)O2)cc1 | 4 | 3
O=c1ccc(-c2ccc(Cl)cc2)nn1CCNS(=O)(=O)c1cccc(C(F)(F)F)c1 | 0 | -1
Cc1cc(C)cc(NC(=O)C2CCN(c3ccc4nnc(C(F)(F)F)n4n3)CC2)c1 | -5 | -9
O=C(NCC1COc2ccccc2O1)c1cn(CCc2ccccc2)nn1 (stereo not drawn) | -1 | -6
O=C(Cn1cnc2c(nnn2-c2ccccc2)c1=O)N1CCCc2ccccc21 | 8 | 6
CCC(C)NS(=O)(=O)C1CCOC1 (stereo not drawn) | -5 | -5
COc1ccc(Br)cc1CN(C)C(=O)NCCc1ccccc1F | 0 | -3
COc1ccc(-n2c(SCc3ccc(C)cc3)nc3c(c2=O)SCC3)cc1 | 4 | 64
COCc1cc(C)nc(N/N=C\c2cc(N=Nc3ccccc3)ccc2O)c1C#N | -9 | -18
COC(=O)C1(NC(=O)c2cc(OC)cc(OC)c2)CCCCC1 | 1 | 0
O=C(CC1COC(=O)C1)Nc1ccc(NCc2ccccc2)c(Cl)c1 (stereo not drawn) | -2 | -2
CNC(=S)NCCc1cc2c(OC)ccc(OC)c2[nH]c1=O | 10 | 10
COc1ccc(-n2nc(-c3ccccc3)cc2NC(=O)CN(CC(C)C)C(=O)c2ccc([N+](=O)[O-])cc2)cc1 | 1 | 0
CCN(Cc1ccc(C)o1)C(=O)c1ccc(C#CC(C)(C)O)cc1 | 9 | 9
CCOC(=O)C1(C)CCCCN1C(=O)c1cccc(OC(F)(F)F)c1 (stereo not drawn) | 1 | -1
Cc1ccccc1C(C)NC(=O)c1ccc(OCc2nccn2C)cc1 (stereo not drawn) | 2 | 9
CC(=O)Nc1ccc(Cl)c(C(=O)N2CC=C(c3ccc(F)cc3)CC2)c1 | -4 | -5
O=C1NCCN(Cc2ccc(F)c(F)c2)C1CC(=O)N1CCN(C2CCCCC2)C(=O)C1 (stereo not drawn) | 5 | 6

Other structures follow:
SMILES | NPYLR7 ag | NPYLR7 ag max-min
Cc1cn(Cc2ccccc2C(=O)NCCN(C)C)c(=NC(=O)c2ccco2)s1 | 5 | 2
CCOc1ccc(-c2nc3ccc(Cl)cn3c2NC2CCCCC2)cc1 | -6 | -5
O=c1c(Cl)c(N2CCN(C3CCS(=O)(=O)C3)CC2)cnn1-c1ccccc1 (stereo not drawn) | 6 | 4
CCC(Sc1nnc(C)s1)C(=O)Nc1ccc(C(C)=O)cc1 (stereo not drawn) | 7 | 7
Clc1ccc(-c2nc(SCC3CCCO3)n[nH]2)cc1 (stereo not drawn) | 18 | 9
CCOC(=O)c1ccc(NC(=O)Nc2ccc(N3CCCC3)c(C(=O)N3CCCC3)c2)cc1 | 15 | 20
O=C(CSc1nc2[nH]ncc2c(=O)[nH]1)Nc1ccc([N+](=O)[O-])cc1 | -2 | -1
C=CCn1c(=NC(=O)c2ccc(OC)c(OC)c2)sc2cccc(OC)c21 | 1 | 0
Cc1ccc(C)n1-c1sc2c(c1C#N)CCCC2 | -1 | 3
Cn1cccc1C(=O)NCCNS(=O)(=O)c1cc(Cl)cc(Cl)c1 | -3 | -3
CCOc1ccc(S(=O)(=O)NC2CCN3CCCCC23)cc1C (stereo not drawn) | 7 | 4
O=C(Nc1nncs1)c1ccc(CSC(F)F)o1 | -1 | 0
CCOC(=O)Cc1c(C)nc2ncnn2c1N1CCN(S(=O)(=O)c2ccc(F)c(F)c2)CC1 | 30 | 24
O=C(Nc1cccc(C(F)(F)F)c1)c1c(O)c2ccccc2[nH]c1=O | -8 | -14
Cc1ccsc1C1SCC(=O)N1CC(O)c1ccccc1 (stereo not drawn) | -3 | -6
Cc1cc(C)cc(-n2nnc3c(=O)n(CC(=O)NCc4ccco4)cnc32)c1 | 1 | -3
Cc1cccc(C)c1N1c2c(n(Cc3ccccc3)[nH]c2=O)-c2ccccc2S1(=O)=O | 25 | 34
Cc1cc(C2=NNC(=NCc3ccc4c(c3)OCO4)SC2)c(C)n1Cc1ccco1 | 3 | 6
O=C(C(Cc1cnc[nH]1)n1cccc1)N1CCN(c2ccccc2)C(=O)C1 (stereo not drawn) | 2 | 0
CCOc1cc(/C=C2/SC(=S)N(CC(=O)O)C2=O)ccc1OCc1ccc(F)cc1 | -9 | -14
CCC(O)CN(CCC(C)C)Cc1cccn1Cc1cccc(OC)c1 (stereo not drawn) | -5 | -3
c1ccc2nc(CN3CCN(c4ncnc5ccccc45)CC3)ccc2c1 | -1 | 4
Cc1nn(C)c2ncc(C(=O)N3CCC(c4c[nH]c5ccc(F)cc45)CC3)c(Cl)c12 | 5 | 21
O=C1C(=Cc2cccc(O)c2)SC(=S)N1c1ccccc1O | -4 | -9
Cc1ccc(S(=O)(=O)Nn2c(C)ccc2C)cc1 | -6 | -5

A draw from above in order of formula weight, high to low:
SMILES | NPYLR7 ag | NPYLR7 ag max-min
CCOC(=O)c1ccc(NC(=O)Nc2ccc(N3CCCC3)c(C(=O)N3CCCC3)c2)cc1 | 15 | 20
Cc1nn(C)c2ncc(C(=O)N3CCC(c4c[nH]c5ccc(F)cc45)CC3)c(Cl)c12 | 5 | 21
Cn1cccc1C(=O)NCCNS(=O)(=O)c1cc(Cl)cc(Cl)c1 | -3 | -3
O=C(Nc1cccc(C(F)(F)F)c1)c1c(O)c2ccccc2[nH]c1=O | -8 | -14
O=C(CSc1nc2[nH]ncc2c(=O)[nH]1)Nc1ccc([N+](=O)[O-])cc1 | -2 | -1
CCOc1ccc(S(=O)(=O)NC2CCN3CCCCC23)cc1C (stereo not drawn) | 7 | 4

Other compounds.
SMILES | NPYLR7 ag | NPYLR7 ag max-min
CC(C)c1cc(NC(=O)c2cnc(C(C)(C)C)s2)n[nH]1 | 2 | 0
CCCCC(=O)NCc1ccc2c(c1)cc(C)n2C | 4 | 4
CC(C)(C)CC(=O)Nc1ccc2nc(-c3ccco3)nn2c1 | 3 | -9
O=C(CCCC1CCCCC1)NNC(=O)CC12CC3CC(CC(C3)C1)C2 | 8 | 8
CCOc1ccc(N2C(=O)/C(=C/c3cc(C)n(-c4ccc(C)cc4)c3C)C(=O)NC2=S)cc1 | 12 | 5
CN(C)CCn1c2c(c(SCC(=O)Nc3cccc(C(F)(F)F)c3)nc1=O)CCCC2 | -2 | 5
CCCS(=O)(=O)N1CCC(NCc2nc3ccccc3n2CC)CC1 | -4 | -6
O=C(NCc1ccc(Cl)cc1)N(CCc1ccccc1)Cc1ccccn1 | 2 | 3
Cc1cccc(OCCN(C)Cc2nc3cc(Cl)ccc3c(=O)[nH]2)c1 | 3 | 6
Cc1ccc(NC(=O)c2sc(=O)n(Cc3ccc(Cl)c(Cl)c3)c2C)cc1 | 14 | 8
Cc1ccc(CN(CCc2c[nH]c3ccccc23)C(=O)CN(C(=O)c2ccc(F)cc2)C(C)C)cc1 | 1 | 14
O=[N+]([O-])c1ncccc1OCc1cc(Cl)cc2c1OCOC2 | 4 | 2
O=C(CCCSc1ccc(NC(=O)C2CC2)nn1)NCc1cccnc1 | 0 | -1
Cc1nn(CCCC(=O)NCCC(C)C)c(=O)c2cc3sccc3n12 | 5 | 5
CCn1cnnc1CN(C)C(=O)c1ccc2c(c1)OCCN2C | 0 | -10
CCSc1ncc(-c2nccn2-c2ccc(-c3n[nH]c(C)n3)cc2)cn1 | 5 | 3
CCc1nc2n(n1)C(=O)C(C(c1ccc(OC)cc1)N1CCN(CCO)CC1)S2 (stereo not drawn) | -1 | -4
Cc1cc2c(cc1C)N=C(C(F)(F)F)CC(c1cccs1)=N2 | -1 | -4
OCC1(CCOc2ccccc2)CCN(Cc2cc3ccccc3s2)CC1 | 1 | -3
Cc1nc(NCC(C(C)C)N(C)C)c2nc(C)oc2n1 (stereo not drawn) | 17 | 9
CCOC(=O)c1cnc2cc(C(F)(F)F)ccc2c1Nc1ccc(S(=O)(=O)N(C)C)cc1 | 7 | 7
CN(C(=O)CC1C(=O)NCCN1CCCc1ccccc1)C1CCCCC1 (stereo not drawn) | 1 | -3
O=C(CCc1cn2ccccc2n1)NC1CCCN(CCc2ccccc2)C1 (stereo not drawn) | 3 | -2
O=c1ccc(-c2ccc(F)cc2)nn1CCCNS(=O)(=O)c1cccnc1 | 4 | 3
CC(C)C1CN(C(=O)c2cncc(Cl)c2)CCCN1Cc1ccc(F)cc1 (stereo not drawn) | 2 | 1

New compounds follow:
SMILES | NPYLR7 ag | NPYLR7 ag max-min
CC(Oc1cccc(Cl)c1)C(=O)N1CCOC(COc2cccc(C(F)(F)F)c2)C1 (stereo not drawn) | 28 | 26
O=S(=O)(NCCC1=CCCCC1)c1cccc2nonc12 | -1 | -3
CC(C)(C)c1ccc(C2SCC(=O)N2CCC(=O)Nc2cccc(F)c2)cc1 (stereo not drawn) | 1 | 13
CC(C)(C)c1oc(C(N)=O)cc1CN1CCOC(Cc2ccccc2)C1 (stereo not drawn) | 6 | 4
CC(=O)OC(C(=O)N1CCC(n2c(=O)oc3c(C)cc(C)cc32)CC1)c1ccccc1 (stereo not drawn) | 23 | 22
O=S(=O)(Nc1cc2c(cc1Cl)OCCO2)c1ccccc1C(F)(F)F | -5 | -8
COc1ccc(-n2c(SCCCCC(=O)N3CCN(C(=O)c4ccc(C(F)(F)F)cc4)C(C)C3)nnc2-c2ccccc2)cc1 (stereo not drawn) | 18 | 19
Cc1cc(C(=O)NCCc2cn3nc(C)sc3n2)c(C)o1 | 22 | 15
CCCC(=O)OCC(O)CN(CCc1nc(-c2ccc(Br)cc2)no1)Cc1ccco1 (stereo not drawn) | 6 | 7
CS(=O)(=O)c1cccc(C(=O)NCc2cc(F)ccc2Br)c1 | 12 | 11
CCc1c(C)cc(C(=O)N2CCNCC2C(=O)NC2CC2)c(=O)n1C (stereo not drawn) | -3 | -6
Cc1cc(C)c(S(=O)(=O)NC(C)(C)C)c(C)c1N(C)S(C)(=O)=O | 5 | 8
COc1cc(CN2CCC(C(=O)NC(c3ccccc3)c3ncccc3C)CC2)cc(OC)c1 (stereo not drawn) | 8 | 1
COc1ccccc1C(=O)Nc1cccc(NC(=O)CC2CCC(=O)N2)c1 (stereo not drawn) | 10 | 2
O=C(c1cccc(F)c1)N(Cc1cccnc1)Cc1nccn1Cc1ccccc1Cl | 6 | 12

Four records drawn at random from the list so far, as already listed:
SMILES | NPYLR7 ag | NPYLR7 ag max-min
COC(=O)C1(NC(=O)c2cc(OC)cc(OC)c2)CCCCC1 | 1 | 0
Cc1cc2c(cc1C)N=C(C(F)(F)F)CC(c1cccs1)=N2 | -1 | -4
CC(C)(C)CC(=O)Nc1ccc2nc(-c3ccco3)nn2c1 | 3 | -9
COc1c(S(=O)(=O)n2cnc3ccccc32)ccc(Cl)c1Cl | 13 | 2
